supercomplex: modulators of mitochondrial supercomplex assembly, cell-based, luminescence, Hoechst nuclei count (AID 1645838) | z-score at 11 µM unless noted | actives 5% (n = 2,000) | Cells, luminescence/Hoechst cell count ratio, supercomplex reporter; active compounds read high;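 active = mean z-score of two plates above 1.96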;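 also: control cybrid cells; higher means more mitochondrial supercomplex formation; U2OS-based cells read after two days; 0 = mean of sample wells on the plate; doses worked out from stocks diluted about 900-fold with the highest of each compound shown; many of its hits are not listed in these tables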
supercomplex cell count: also measured in supercomplex; calls as there; cell count; measured here: cell number, Hoechst nuclei count;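 nuclei per well as mean of two plates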
* marks the source's active call; other numbers are inactive results; i = inactive; nt = no result given. This is a subset; the hit share may differ from the screen's.

The first 5 compounds (preview)
SMILES | supercomplex | supercomplex cell count
Cc1ccccc1C(=O)Nc1ccc(C(=O)N2CCCC(O)c3cc(Cl)ccc32)c(C)c1 (stereo not drawn) | -0.293 | 4986
COc1ccc(Cn2ccc3ccc(C(=O)NO)cc32)cc1 | 0.0315 | 4039
CC(N)c1ccc(C(=O)Nc2ccnc3[nH]ccc23)cc1 (stereo not drawn) | 0.129 | 3474
CCN1CCN(Cc2ccc(Nc3ncc(F)c(-c4cc(F)c5nc(C)n(C(C)C)c5c4)n3)nc2)CC1 | i | nt
COc1ccc(C2=NC(c3ccc(Cl)cc3)C(c3ccc(Cl)cc3)N2C(=O)N2CCNC(=O)C2)c(OC(C)C)c1 (stereo not drawn) | -0.242 | 5280

The list itself, repeating the preview:
SMILES | supercomplex | supercomplex cell count
Cc1ccccc1C(=O)Nc1ccc(C(=O)N2CCCC(O)c3cc(Cl)ccc32)c(C)c1 (stereo not drawn) | -0.293 | 4986
COc1ccc(Cn2ccc3ccc(C(=O)NO)cc32)cc1 | 0.0315 | 4039
CC(N)c1ccc(C(=O)Nc2ccnc3[nH]ccc23)cc1 (stereo not drawn) | 0.129 | 3474
CCN1CCN(Cc2ccc(Nc3ncc(F)c(-c4cc(F)c5nc(C)n(C(C)C)c5c4)n3)nc2)CC1 | i | nt
COc1ccc(C2=NC(c3ccc(Cl)cc3)C(c3ccc(Cl)cc3)N2C(=O)N2CCNC(=O)C2)c(OC(C)C)c1 (stereo not drawn) | -0.242 | 5280
CCOc1ccc(-n2c(C(C)N(Cc3cccnc3)C(=O)Cc3ccc(OC(F)(F)F)cc3)nc3ncccc3c2=O)cc1 (stereo not drawn) | -0.306 | 4664
Cc1cc(Cn2cnc3c2CC(C(=O)O)N(C(=O)C(c2ccccc2)c2ccccc2)C3)ccc1N(C)C (stereo not drawn) | -0.297 | 6348
COc1cc(C(=O)O)ccc1NC(=O)C1NC(CC(C)(C)C)[C@](C#N)(c2ccc(Cl)cc2F)C1c1cccc(Cl)c1F (stereo partly drawn) | -1.09 | 4524
c1cc(OCCN2CCCCC2)cc(-c2n[nH]c3ccc(-c4ncn[nH]4)cc23)c1 | -0.219 | 5493
CN1CCC(c2c[nH]c3ccc(NC(=O)c4ccc(F)cc4)cc23)CC1 | -0.37 | 5516
CCCCNc1ncc(C(=O)NCc2ccc(-n3ccnc3)cc2)c(NC2CCC(O)CC2)n1 (stereo not drawn) | 0.697 | 2200
CN(C(=O)CCCOc1ccc2[nH]c(=O)ccc2c1)C1CCCCC1 | 1 | 5829
Cc1cc(Nc2cc(N3CCN(C)CC3)nc(Sc3ccc(NC(=O)C4CC4)cc3)n2)n[nH]1 | i | nt
Cn1cc(-c2ccc3c(c2)CCN3C(=O)Cc2cccc(C(F)(F)F)c2)c2c(N)ncnc21 | 0.717 | 4044
Cn1c(=O)cc(N2CCCC(N)C2)n(Cc2ccccc2C#N)c1=O (stereo not drawn) | -0.112 | 4842
COCC(=O)NCC=Cc1ccc2ncnc(Nc3ccc(Oc4ccc(C)nc4)c(C)c3)c2c1 | -1 | 4731
COc1cc2nc(-c3cc(F)ccc3O)nc(NC3CNCC3C(C)(C)O)c2cc1OC (stereo not drawn) | i | nt
Nc1nc(OCc2cc(Br)cs2)c2[nH]cnc2n1 | 1.11 | 6108
CCn1c(C(=O)N(C2CC2)C2CC2)cc2c3c(ncn3C)c(Nc3cc(C)n(C)n3)nc21 | -0.376 | 5681
Cn1cc(-c2ccc3nnc(C(F)(F)c4ccc5ncccc5c4)n3n2)cn1 | 0.0287 | 5291
CCn1cc(-c2ccnc3[nH]c(-c4cccc(CN(C)C)c4)cc23)c(-c2ccc(NC(=O)N(C)C)cc2)n1 | i | nt
CN1CCN(CCOc2cc(OC3CCOCC3)c3c(Nc4c(Cl)ccc5c4OCO5)ncnc3c2)CC1 | i | nt
NC(=O)c1cccc(-c2cc(Nc3ccc(OC(F)(F)F)cc3)ncn2)c1 | -1.29 | 5004
Cc1cc(Nc2ncc(Cl)c(Nc3ccccc3S(=O)(=O)C(C)C)n2)c(OC(C)C)cc1C1CCNCC1 | i | nt
Cc1cc(OCc2nnc(SC3CCCC3)n2-c2cccnc2)ccc1-c1ccc(S(C)(=O)=O)cc1 | i | nt
C1CCC(C(CC2CCCCN2)C2CCCCC2)CC1 (stereo not drawn) | -0.891 | 5568
CCCSc1nc(NC2CC2c2ccc(F)c(F)c2)c2nnn(C3CC(OCCO)C(O)C3O)c2n1 (stereo not drawn) | -0.602 | 5910
C#CCC(Cc1cnc2nc(N)nc(N)c2n1)c1ccc(C(=O)NC(CCC(=O)O)C(=O)O)cc1 (stereo not drawn) | i | nt
CC1CCN(c2cc(N3CCN(C)CC3)ccc2NC(=O)c2cc(C#N)c[nH]2)CC1 | -0.124 | 5145
COC(=O)CC1CC(c2ccc(O)cc2)=NO1 (stereo not drawn) | -0.4 | 6250
O=C(c1ccc(C(=O)N2CCC(N3CCCC3)CC2)c(Nc2ccccc2)c1)N1CCC(N2CCCC2)CC1 | -0.256 | 4798
CC(Oc1cc(-n2cnc3ccc(CN4CCN(C)CC4)cc32)sc1C(N)=O)c1ccccc1C(F)(F)F (stereo not drawn) | i | nt
Cc1[nH]c(C=C2C(=O)Nc3ccc(F)cc32)c(C)c1C(=O)NCCN1CCCC1 | 0.794 | 4739

Compound profiles (already shown).
Entry for Cn1cc(-c2ccc3nnc(C(F)(F)c4ccc5ncccc5c4)n3n2)cn1 → supercomplex = 0.0287; supercomplex cell count = 5291
Entry for CCCSc1nc(NC2CC2c2ccc(F)c(F)c2)c2nnn(C3CC(OCCO)C(O)C3O)c2n1 (stereo not drawn) → supercomplex = -0.602; supercomplex cell count = 5910

5 structures out of the list, sorted by molecular weight, rising.
SMILES | supercomplex | supercomplex cell count
COC(=O)CC1CC(c2ccc(O)cc2)=NO1 (stereo not drawn) | -0.4 | 6250
C#CCC(Cc1cnc2nc(N)nc(N)c2n1)c1ccc(C(=O)NC(CCC(=O)O)C(=O)O)cc1 (stereo not drawn) | i | nt
CCn1cc(-c2ccnc3[nH]c(-c4cccc(CN(C)C)c4)cc23)c(-c2ccc(NC(=O)N(C)C)cc2)n1 | i | nt
CCCSc1nc(NC2CC2c2ccc(F)c(F)c2)c2nnn(C3CC(OCCO)C(O)C3O)c2n1 (stereo not drawn) | -0.602 | 5910
CC(Oc1cc(-n2cnc3ccc(CN4CCN(C)CC4)cc32)sc1C(N)=O)c1ccccc1C(F)(F)F (stereo not drawn) | i | nt

Source: PubChem BioAssay
